Rce1 inh: yeast Rce1p protease inhibitors, primary screen, biochemical, fluorescence, cell-free homogeneous; CAAX prenyl protease 2 (Saccharomyces cerevisiae (strain ATCC 204508 / S288c)), Q03530; yeast membranes, quenched prenylated peptide cleavage fluorescence; calls only; 290,000 compounds, 0.27% hits;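 active = fall in fluorescence gain of 50% or more versus controls, with final raw signal at or below 3038400; inconclusive = same 50% fall but final raw signal above 3038400; inactive = fall in fluorescence gain under 50%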;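 note: plate controls were neutral control wells for no effect and wells lacking membranes for full effect; tested at 10 µM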
Target sequence (Q03530 whole entry, looked up): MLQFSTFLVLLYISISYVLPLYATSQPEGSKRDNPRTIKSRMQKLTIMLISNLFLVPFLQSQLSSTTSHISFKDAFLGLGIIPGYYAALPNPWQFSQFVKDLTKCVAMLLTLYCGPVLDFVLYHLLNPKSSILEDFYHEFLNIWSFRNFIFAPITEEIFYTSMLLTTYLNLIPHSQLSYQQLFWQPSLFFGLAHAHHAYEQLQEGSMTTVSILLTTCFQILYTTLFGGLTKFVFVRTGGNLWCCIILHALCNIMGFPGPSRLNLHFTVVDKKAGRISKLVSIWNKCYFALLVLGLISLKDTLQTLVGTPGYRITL
MT1-MMP act inh: blockers of MT1-MMP proenzyme processing, primary screen, HT1080 RFP-PRO-GFP cells, GFP/RFP fluorescence; GFP/RFP ratio fluorescence, overnight; percent of plate control window, DMSO zero; GFP/RFP ratio change, % at 20 µM; 360,000 compounds, 0.061% hits; AID 651647, 2012;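 active = GFP/RFP ratio change of at least 30% with cell ATP level not reduced by more than half and red fluorescence within 50% of control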; note: strong numbers were not always called active
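Test system: HT1080 RFP-PRO-GFP cells; Benchmarks: DMSO and RFP-L50D-GFP cell wells; Timing: cells overnight before dosing, compound overnight, 37 °C, 5% CO2; Compound: one 20 µM compound dose with 1% DMSO; Read-out: GFP/RFP fluorescence ratio.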
UUG fidelity: modulators of yeast start codon fidelity, primary screen, whole organism, S. cerevisiae, single point, plate reader; AID 602363, 2012; 350,000 compounds, 0.13% hits; S. cerevisiae UUG-firefly luciferase reporter, luminescence/redox ratio; activity score, % at 18.7 µM;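 active = replicate mean at a twofold rise or more, about +100% in these data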;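 note: firefly luciferase made from a UUG start codon reports start codon fidelity; reporter light over untreated wells divided by growth signal over untreated wells; some hits fall short of that in this replicate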
PABP polyA inh: PABP poly(A) RNA binding inhibitors, primary screen, biochemical, fluorescence polarization, uHTS. 290,000 compounds, 1% hits. Polyadenylate-binding protein 1 (Homo sapiens), P11940. inhibition, % at 35 µM;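 active = 50% or more with normal probe brightness, or confirmed in later tests; inconclusive = above 50% with abnormal brightness, or retests that disagree; inactive = below 50% or failed in later tests; about a fifth of its hits are not listed in these tables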;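 note: calls also rest on retests at 20 µM and on dose response follow-up; controls were probe without protein and protein plus probe with vehicle; some compounds called inactive have numbers as strong as hits; many hits fall short of the cut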
CSC inhib: cancer stem cell viability inhibitors, primary screen, luminescence. cancer stem cell-like cells viability. 300,000 compounds, 1.1% hits. inhibition, % at 7.5 µM;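 active = mean at 75% or more and at least half the replicates too; inconclusive = mean and replicates disagree; tested in HMLE shEcad cells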;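 note: 0% = median of negative and 100% = median of positive control wells; the first replicate is given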
eIF4H inh: human eIF4H binding inhibitors, primary screen, translation initiation inhibitor project, biochemical, uHTS, fluorescence polarization | Eukaryotic translation initiation factor 4H (Homo sapiens), Q15056 | eIF4H fluorescence polarization binding assay | inhibition, % at 35 µM | 290,000 compounds, 0.94% hits | AID 2012, 2009;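 active = 50% or more with normal probe brightness, or confirmed in later tests; inconclusive = above 50% with abnormal brightness, or retests that disagree; inactive = below 50% or failed in later tests; about a fifth of its hits are not listed in these tables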;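 note: calls also rest on retests at 20 µM and on dose response follow-up; 0% = protein and probe with vehicle and 100% = probe without protein; strong numbers were not always called active; many hits fall short of the cut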
Env fusion inh: inhibitors of HIV-1 Env-driven cell-cell fusion, primary screen, HeLa-JRFL effector, CEM21 target cells, luciferase. 360,000 compounds, 1.1% hits. AID 651610, 2012. inhibition, % at 12.3 µM;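 active = mean replicate inhibition score of at least 50 and every replicate individually at or above 50; inconclusive = only one of the two criteria met; inactive = mean below 50 and not all replicates reaching 50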;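 note: 0% = plate neutral controls and 100% = maraviroc near 300 nM; one replicate is shown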
MT1-MMP act inh RFP: further read-out of MT1-MMP act inh, marked with its call; RFP signal change, %; measured here: RFP expression control read;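 0 = vehicle wells; hits needed this value within 50% of zero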
The depositor's hits bear a star; i = inactive; ? = inconclusive; . = no result given; & = joins results of further samples. An excerpt, so the mix of outcomes need not match the whole.

SMILES	Rce1 inh	MT1-MMP act inh	MT1-MMP act inh RFP	UUG fidelity	PABP polyA inh	CSC inhib	eIF4H inh	Env fusion inh
Cc1oc2ncnc(N)c2c1C	i	-5.3	-8.7	-8.6	-0.3	-14.7	-4.8	.
COc1cc(NC(=O)c2nn(C)c3c2CS(=O)(=O)c2ccccc2-3)cc(OC)c1	i	3.1	-2.7	-20.0	-0.8	8.5	-1.6	13.6
Cc1ccc(NC(=O)NC(=O)COC(=O)c2ccc(O)cc2O)c(C)c1	.	-1.5	3.7	-17.9	.	.	.	27.3
COc1cccc(C(C(=O)NC(C)(C)C)N(Cc2ccc(C)cc2)C(=O)CCC(=O)Nc2cc(C)on2)c1OC (configuration not stated)	i	-5.1	-3.0	5.3	-1.9	5.2	2.6	2.7
CCOc1ccc(NC(=O)CSc2nc(=O)n(Cc3cccnc3)c3c2CCC3)cc1	i	-3.3	-3.6	-15.9	.	3.2	.	-0.7
Cc1ccc(NC(=O)CCSc2nnc(-c3ccco3)o2)cc1	i	-2.8	-1.7	-8.4	12.1	-8.6	2.3	15.3
CCC(C)(C)C1CCC2(CC1)NC(=O)N(CC(=O)N(C)Cc1ccc(OC(F)F)cc1)C2=O (configuration not stated)	i	8.7	-30.5	.	.	10.1	.	.
Cc1ccc(S(=O)(=O)Nc2ccc(S(=O)(=O)Nc3nccs3)cc2)c([N+](=O)[O-])c1	i	0.9	2.5	-0.8	-2.6	-3.7	4.9	20.4
O=C(NCC1CCCO1)C(=O)N/N=C/c1cc(Cl)ccc1O (configuration not stated)	i	2.0	-1.6	-18.3	0.1	8.0	-1.9	-15.0
CCCNC(=O)COc1ccc(S(=O)(=O)Nc2ccc(C)cc2)cc1	i	1.3	2.4	-6.5	-3.7	.	-4.2	.
O=C(COC(=O)c1ncc(Cl)c(Cl)c1Cl)NCCc1ccccc1	i	1.4	5.1	3.3	.	-17.4	.	5.4
Cc1cccc(Oc2ccc(NC(=O)C3CC=CCC3C(=O)O)cc2)c1 (configuration not stated)	i	-5.9	-3.4	.	2.2	4.7	16.0	12.1
CCn1cc(Cl)c(C(=O)NNC(=O)CCn2cc([N+](=O)[O-])cn2)n1	i	-1.3	3.6	-32.9	-5.6	-20.4	5.1	13.8
O=C(NCc1c(Cl)cccc1Oc1ccccc1)c1ccccc1	.	-3.4	-10.8	0.7	-6.5	-5.3	-6.8	8.4
Cc1ccc(C)c(NC(=O)CN(C)S(=O)(=O)c2ccccc2)c1	i	2.4	-6.2	-4.5	6.0	-2.8	-3.8	.
COc1cccc(-c2nn(-c3ccccc3)cc2CN(C)Cc2c(C)nc3ccccn23)c1	i	-7.9	-7.5	6.8	-5.4	24.2	-1.0	34.8
COc1ccc(C)cc1S(=O)(=O)NCCN1CCOCC1	i	1.5	7.4	-31.4	5.0	-8.3	5.3	15.2
CC(=O)c1cnc2nc(SCc3ccccc3C)nn2c1C	i	-4.3	-1.8	-24.9	-0.8	-13.4	2.6	-7.7
CCc1ccccc1NC(=O)CSc1nc(-c2ccccc2)nn1C(=O)c1cccc([N+](=O)[O-])c1	i	.	.	.	7.2	1.8	-2.9	.
N/C(=N\OC(=O)c1ccco1)c1ccccn1	.	-1.6	-0.9	-39.4	-1.5	0.2	-14.1	-27.8
CCOC(=O)N1CCC(NC(=O)c2cc(C(=O)NC3CCCC3)ccc2CO)CC1	i	-2.4	2.3	-5.1	-6.0	-7.5	-3.7	-60.7
O=C(CNCc1ccc(Cl)cc1)Nc1ccc2c(c1)OCCO2	i	3.8	0.6	.	-14.2	-12.8	-3.9	-6.8
Cc1cc(C)nc(/N=C(\NC(=O)C(C)(C)C)Nc2ccc(F)cc2)n1	i	-0.3	-1.5	.	-2.6	7.0	2.7	-10.2
COc1cc(NC(=O)C2=C(N3CCOCC3)/C(=C/c3ccc(Cl)cc3)CC2)cc(OC)c1OC	i	-0.9	-11.5	.	-7.0	50.9	-13.8	6.4

Looked up above.
Env fusion inh, CCOC(=O)N1CCC(NC(=O)c2cc(C(=O)NC3CCCC3)ccc2CO)CC1 stands at -60.7
CSC inhib, Cc1oc2ncnc(N)c2c1C stands at -14.7

Two entries from above, set out differently.
Results follow in this order: Rce1 inh, MT1-MMP act inh, MT1-MMP act inh RFP, UUG fidelity, PABP polyA inh, CSC inhib, eIF4H inh, Env fusion inh
CCn1cc(Cl)c(C(=O)NNC(=O)CCn2cc([N+](=O)[O-])cn2)n1
 : i, -1.3, 3.6, -32.9, -5.6, -20.4, 5.1, 13.8
O=C(NCc1c(Cl)cccc1Oc1ccccc1)c1ccccc1
 : ., -3.4, -10.8, 0.7, -6.5, -5.3, -6.8, 8.4

The listing picks up, repeating the 4 entries before the break.
SMILES	Rce1 inh	MT1-MMP act inh	MT1-MMP act inh RFP	UUG fidelity	PABP polyA inh	CSC inhib	eIF4H inh	Env fusion inh
CCOC(=O)N1CCC(NC(=O)c2cc(C(=O)NC3CCCC3)ccc2CO)CC1	i	-2.4	2.3	-5.1	-6.0	-7.5	-3.7	-60.7
O=C(CNCc1ccc(Cl)cc1)Nc1ccc2c(c1)OCCO2	i	3.8	0.6	.	-14.2	-12.8	-3.9	-6.8
Cc1cc(C)nc(/N=C(\NC(=O)C(C)(C)C)Nc2ccc(F)cc2)n1	i	-0.3	-1.5	.	-2.6	7.0	2.7	-10.2
COc1cc(NC(=O)C2=C(N3CCOCC3)/C(=C/c3ccc(Cl)cc3)CC2)cc(OC)c1OC	i	-0.9	-11.5	.	-7.0	50.9	-13.8	6.4
O=[N+]([O-])c1ccccc1S(=O)(=O)Nc1cccc(-c2ccc3nncn3n2)c1	i	1.6	6.2	-15.2	.	1.0	.	9.7
CC(=O)c1c(C)[nH]c(C(=O)CN2CCN(S(=O)(=O)c3ccccc3)CC2)c1C	.	2.5	-5.8	-12.2	.	.	.	?
CC(=O)c1sc(NC(=O)COc2ccccc2)nc1C	i	2.6	1.0	-5.2	7.0	15.8	-8.9	-37.0
c1csc(CN2CCOCC2)c1	i	-3.4	4.3	.	10.5	-3.5	-0.9	.
CCc1ccc(-c2nc(SCC(=O)NC3CCS(=O)(=O)C3)n[nH]2)cc1 (configuration not stated)	i	-1.4	3.8	-4.0	.	-5.0	.	-52.0
Cc1nc(C)c(-c2csc(Nc3ncccc3C)n2)s1	i	-0.2	-24.7	-19.5	1.5	5.3	-7.4	-73.5
COc1ccccc1C(=O)C1CCCN(C(=O)CCC(=O)c2ccccc2)C1 (configuration not stated)	i	8.0	-5.7	.	-6.8	1.2	-2.0	13.6
CN(C)/C=C/C(=O)c1ccc(F)cc1	i	1.6	5.5	4.3	-6.6	8.6	7.9	-49.0
CN(C1CCS(=O)(=O)C1)S(=O)(=O)c1ccc(C2CCCCC2)cc1 (configuration not stated)	i	-4.9	-6.6	-10.9	-9.9	-2.8	6.3	.
CCOc1ccc(N(CC(=O)NCc2ccccc2OC)S(C)(=O)=O)cc1	i	5.2	-1.1	-14.4	-7.9	-11.6	-9.4	-109.6
CC(Oc1ccc(-c2nccc(-c3ccccn3)n2)cc1)C(=O)NN (configuration not stated)	i	4.2	4.3	-12.8	4.0	5.2	-14.8	.
O=C(c1ccc2c(c1)OCO2)C1CCCN(C(=O)C2CCOCC2)C1 (configuration not stated)	i	-2.4	0.8	.	8.3	-6.6	-9.4	14.1
O=C(Nn1cnnc1)C(Sc1ccccc1)c1ccccc1 (configuration not stated)	i	3.0	5.0	-11.9	-1.3	-15.0	-4.2	1.9
CCOc1ccc(S(=O)(=O)N2CCN(C(=O)CCC(=O)N3CCOCC3)CC2)cc1	i	-0.4	-1.8	-12.5	.	-10.9	.	12.7
C[C@H](CO)N1C[C@H](C)[C@@H](CN(C)C(=O)Nc2ccccc2)Oc2c(NC(=O)c3ccncc3)cccc2C1=O	.	-0.7	3.7	11.8&-14.8	.	.	.	-51.6
CC(C)COc1ccc(C2NC(=O)NC2=O)cc1 (configuration not stated)	i	3.7	-0.6	-20.4	-2.5	.	-1.0	-38.9
Cn1cc(-c2nnnn2-c2cccc(C(F)(F)F)c2)c(C(F)(F)F)n1	i	0.1	0.8	-17.6	0.3	6.8	10.2	-50.3
c1ccc(OCCOCCOc2ccccc2)cc1	.	-1.7	2.8	-15.9	.	.	.	-4.5
N#CC1c2ccccc2C=CN1C(=O)c1ccccc1 (configuration not stated)	i	2.3	1.5	-9.7	-8.7	-17.5	-1.9	2.1
CC(=O)Nc1ccc(NC(=O)CSc2nnc(-c3cc4ccccc4o3)n2C)cc1	i	1.0	2.0	-16.4	9.7	.	2.5	-7.4
COc1ccc(N2CCN(C(=O)c3ccc4c(c3)[nH]c(=S)n3c5ccccc5nc43)CC2)cc1	i	.	.	.	12.8	16.6	-2.0	-6.0
CC(=O)c1ccc(OCc2cc(C(=O)N3CCC[C@H]3CO)no2)cc1	i	-3.7	-1.5	0.0	1.2	2.0	6.1	-8.3
CC1CCN(C(C(=O)O)c2ccccc2)CC1 (configuration not stated)	i	2.0	5.3	.	-16.4	-4.1	5.0	12.0
O=C(O)c1ccc(NC(=O)c2ccccc2NC(=O)c2cccc(Br)c2)cc1	i	-0.3	-4.3	1.4	14.6	-0.3	0.1	-12.3
Cc1csc(NC(=O)c2ccoc2C)n1	i	-9.4	-5.9	-13.9	-1.0	-16.7	2.5	?
COc1ccc(CN2CCC(n3nccc3NC(=O)CCc3ccccc3)CC2)c(C)c1C	i	9.2	2.1	-7.8	-3.5	.	-7.2	13.4
CC(=O)N/C(=N\c1nc(C)cc(C)n1)Nc1ccc(Cl)cc1Cl	i	-8.3	-2.2	-27.7	1.6	-0.3	4.1	7.0
CCCc1n[nH]c2c1/C(=N/O)CC(c1ccccc1)C2 (configuration not stated)	i	-4.7	-3.3	-7.8	-2.5	23.2	-3.8	.
CSCCC(NC(=O)c1ccc(Cl)cc1)C(=O)OCC(=O)Nc1cc(Cl)ccc1C#N (configuration not stated)	i	-2.2	2.1	.	-1.0	-7.3	-6.2	6.4
COC(=O)c1ccc(N2C(=O)CC(NCc3ccccc3)C2=O)cc1 (configuration not stated)	i	-5.3	1.6	-14.3	-3.2	8.7	-1.6	.
COc1c(C)cc(C(=O)C2CCCN(C(=O)c3cc(C)on3)C2)cc1C (configuration not stated)	i	5.0	-5.9	3.9	8.7	-22.7	-3.8	1.0
COC(=O)c1c(SCC(=O)Nc2ccc(C)cc2)nc(=O)[nH]c1C	i	0.0	3.5	.	-13.1	-9.6	-1.1	-4.4
C#CCOCCOCCOCCNc1nc(N2CCN(C(=O)Cn3cc(CCCN=C(N)N)nn3)CC2)nc(N2CCN(C(=O)[C@H]([C@@H](C)O)n3cc(CCCCN)nn3)CC2)n1	.	4.3	-0.2	-8.9	.	-1.9	.	4.9
COc1ccc(N2CCN(C(=S)Nc3ccccc3OC)CC2)cc1	i	0.2	-7.4	-23.9	-1.7	-13.8	-7.1	-6.8
COC(=O)Nc1c(C)nn(Cc2ccccc2C)c1C	i	-9.0	-1.9	.	5.0	-8.2	6.8	.
